Cruzain Triton – qHTS Assay for Promiscuous and Specific Inhibitors of Cruzain (with detergent) | Cruzipain (Trypanosoma cruzi), P25779 | purified cruzain, Z-FR-AMC fluorescence, 0.01% Triton | Potency, µM, without a hit: max response, negative = inhibition, hits mostly inhibitors | 200,000 compounds, 0.43% hits | AID 1478, 2009;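 also: plate controls were neutral wells for no effect and buffer without enzyme for full effect; nearly all actives have a fitted effect of over 40% in size; top concentration of the series not given in the record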
Target sequence (P25779 123-467 limits assumed): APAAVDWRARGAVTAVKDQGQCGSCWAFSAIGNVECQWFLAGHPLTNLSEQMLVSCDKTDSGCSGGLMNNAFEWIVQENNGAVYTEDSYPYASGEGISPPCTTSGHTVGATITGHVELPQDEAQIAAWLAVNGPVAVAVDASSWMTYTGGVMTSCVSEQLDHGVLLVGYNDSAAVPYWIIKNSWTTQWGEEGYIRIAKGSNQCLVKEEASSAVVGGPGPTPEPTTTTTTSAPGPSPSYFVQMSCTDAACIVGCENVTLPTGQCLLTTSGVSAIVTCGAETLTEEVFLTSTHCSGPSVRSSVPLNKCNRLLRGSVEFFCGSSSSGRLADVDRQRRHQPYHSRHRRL
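Enzyme 1.5 nM, Z-FR-AMC 2 uM, NaOAc 100 mM pH 5.5, DTT 5 mM, Triton X-100 0.01%; 15 min RT compound preincubation; kinetic ex360/em450, 60 s delta.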
SARS PLpro yeast – qHTS of Yeast-based Assay for SARS-CoV PLP. S. cerevisiae expressing SARS-CoV PLpro, growth rescue; control for the full effect not named in the record. 330,000 compounds, 0.19% hits. AID 485353, 2010. Potency, µM (series often up to 32.9 µM), inactives show top-dose activity, positive = growth rescue; active means well fitted rising curve with a large enough effect; inconclusive means small, poorly fitted or top-dose-only effect; inactive means no such curve, though single readings can be large or run the other way; also: 0% is about no effect; nearly all actives have a fitted effect of over 55% in size; growth read by luminescence after 48 h
StopGo reporter – High Throughput Screening for Foot and Mouth Disease Virus Antivirals. human cells with a luciferase reporter of 2A StopGo recoding; control for the full effect not named in the record. 410,000 compounds, 1.2% hits. Potency, µM (titrated, usually from 57.9 µM), inactives show at the top dose signal change, negative = less light. AID 1159524, 2015; active = well fitted falling curve with a large enough effect; inconclusive = small, poorly fitted or top-dose-only effect; inactive = no such curve, though single readings can be large or run the other way; tested in HEK293T cells; also: % is scaled to controls: 0 for no effect and ±100 for the full control effect; nearly all actives have a fitted effect of over 45% in size; luciferase light after 4 h
NS1 inh – qHTS Assay for Inhibitors of Influenza NS1 Protein Function. Potency, µM (titrated, usually from 46.1 µM), for the others: top-dose activity, positive = more growth. S. cerevisiae slowed by influenza A NS1, growth recovery by OD600. AID 2326, 2010. 270,000 compounds, 0.4% hits; active means well fitted rising curve with a large enough effect; inconclusive means small, poorly fitted or top-dose-only effect; inactive means no such curve, though single readings can be large or run the other way; also: nearly all actives have a fitted effect of over 50% in size
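OD600 was taken as the measure of yeast growth restored by compound in an NS1-expressing S. cerevisiae strain. Cells had been washed out of glucose medium and diluted 1:100 into galactose -URA medium, pH 6.0.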
Lassa entry inh – qHTS for Inhibitors of binding or entry into cells for Lassa Virus. Lassa virus pseudotype entry inhibition, cell reporter; control for the full effect not named in the record. Potency, µM (top dose mostly 37.9 µM), for the others: at the highest dose activity change, negative = inhibition, hits mostly inhibitors. 300,000 compounds, 1.2% hits. AID 540256, 2011; active means well fitted inhibition curve with a large enough effect; inconclusive means small, poorly fitted or top-dose-only effect, or effect the other way; inactive means flat fitted curve, though single readings scatter; tested in HEK293 cells; also: % is scaled to controls: 0 for no effect and ±100 for the full control effect; nearly all actives have a fitted effect of over 50% in size; luciferase read-out
MARV entry inh – qHTS for inhibitors of binding or entry into cells for Marburg Virus; AID 540276, 2011; Potency, µM (highest dose often 37.8 µM), without a hit: at the top dose activity change, negative = inhibition, usual class: inhibitors; 300,000 compounds, 1.8% hits; Marburg virus pseudotyped entry inhibition, cell reporter; control for the full effect not named in the record; about a third of the inactives were read at about 46 µM; active = well fitted inhibition curve with a large enough effect; inconclusive = small, poorly fitted or top-dose-only effect, or effect the other way; inactive = flat fitted curve, though single readings scatter; tested in HEK293 cells; about a fifth of its hits are not listed in these tables; also: % is scaled to controls: 0 for no effect and ±100 for the full control effect; luciferase read-out
Cruzain inh noDet – qHTS Assay for Promiscuous and Specific Inhibitors of Cruzain (without detergent); purified cruzain, Z-FR-AMC fluorescence, no detergent; 200,000 compounds, 2.3% hits; Cruzipain (Trypanosoma cruzi), P25779; Potency, µM, for the others: max response, negative = inhibition, most hits filed as inhibitors;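 also: plate controls were enzyme without inhibitor for no effect and buffer without enzyme for full effect; nearly all actives have a fitted effect of over 40% in size; top concentration of the series not given in the record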
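Purified cruzain at 1.5 nM, pre-incubated 15 min with compound at room temperature in 100 mM sodium acetate pH 5.5, 5 mM DTT, 0.00005% Triton X-100. Reaction started with 2 uM Z-FR-AMC; AMC fluorescence increase over 60 s gives rate.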
RE007 growth inh – qHTS Assay for Inhibitors of the HIV-1 protein Vpr; S. pombe RE007 Vpr strain, BacTiter-Glo ATP luminescence, 24 h; control for the full effect not named in the record; Potency, µM (series often up to 92.2 µM), inactives show top-dose activity change, negative = less growth; 360,000 compounds, 0.21% hits; active = well fitted falling curve with a large enough effect; inconclusive = small, poorly fitted or top-dose-only effect; inactive = no such curve, though single readings can be large or run the other way;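 also: % is scaled to controls: 0 for no effect and ±100 for the full control effect; nearly all actives have a fitted effect of over 50% in size; the assay follows cell death caused by Vpr and the record does not say whether a fall means rescue or toxicity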
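Fission yeast strain RE007, carrying one chromosomally integrated HIV-1 vpr copy, was seeded at OD 0.01 in PMG+AL medium with 23 nL pinned compound. After 24 h at 30 °C and 99% humidity, viability was read by BacTiter-Glo luminescence.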
An asterisk follows results filed as active; ? = inconclusive; / = no result given; & = joins results of further samples; [ ] = another dose, or the depositor's remark. Unless noted, calls follow the shape of the dose curve; as a rule, active = well fitted curve in the direction sought with a large enough effect; inconclusive = small, poorly fitted or top-dose-only effect, or another doubt; inactive = no such curve, though single readings can be large; an effect the other way counts as inactive or inconclusive. Potency is read from the fitted curve at half-maximal effect.

SMILES	Cruzain Triton	SARS PLpro yeast	StopGo reporter	NS1 inh	Lassa entry inh	MARV entry inh	Cruzain inh noDet	RE007 growth inh
COC(=O)C1C(=O)N2CCCSC2=C(C#N)C1c1cccs1 (configuration not stated)	-2.5%	7%	/	-9%	-4%	-5%	9%	7%
COc1ccc(/C(C)=N/OC/C(O)=C(\C#N)c2nc3ccccc3[nH]2)cc1OC	/	0%	2%	12%	-16%	?	/	37%
O=C(Nc1ccccc1)c1cccc(NC(=O)c2ccco2)c1	/	/	-14%	/	-3%[46.1 µM]	-18%[46.1 µM]	/	1%
O=C(CCOc1ccccc1)N1CCN(S(=O)(=O)c2ccccc2F)CC1	/	-6%	-4%	/	2%	16%	/	-25%
COC(=O)CSc1nnc(-c2ccccc2OC)n1-c1ccc(C)cc1	2.2%	0%	-4%	1%	-10%	4%	-20%	12%
CCCN1C(=O)COc2ccc(-c3n[nH]c(=O)c4ccccc34)cc21	/	1%	?	-6%	-2%[46.1 µM]	10µM*	/	-14%
CCOC(=O)C(Cc1cc(C(C)=O)ccc1OC(C)C)C(=O)OCC	2.3%	2%	?	-74%	?	?	19%	-2%
Cc1ccc(S(=O)(=O)NCCC(=O)Nc2ccc(C)c(Cl)c2)cc1C	-11%	2%	3%	3%	-9%	?	0%	5%
O=C(COC(=O)C1=COCCO1)Nc1ccc(F)c(F)c1	/	1%	13%	/	3%	?	/	-25%
Cc1nnsc1C(=O)Oc1ccc(Cl)cc1	-2.5%	/	3%	/	12%[46.1 µM]	-5%[46.1 µM]	-3%	/
COc1cc(S(=O)(=O)NCc2ccncc2)c(OC)cc1Br	/	-4%	27%	3%	-23%	?	/	-7%
Cc1nc2c3cccnc3nn2c(C)c1CCC(=O)NCc1ccccc1	4.3%	/	-4%	/	1%[46.1 µM]	14%[46.1 µM]	3%	/
CS(=O)(=O)N(Cc1ccccc1)c1ccccc1C(=O)Nc1ccccc1C(=O)NCc1ccco1	-3.7%	1%	-23%	-7%	-2%	4.1µM*	5%	-14%
Cc1ccc(C(O)(COC(=O)C(C)C)COC(=O)C(C)C)c(O)c1	/	-5%	-11%	-3%	/	/	/	-9%
O=C(CNC(=O)N1CC(=O)Nc2ccccc21)NCc1ccccc1Cl	/	-4%	-7%	1%	/	/	/	0%
Cc1ccc(S(=O)(=O)Nc2ccccc2C(=O)Nc2nc(-c3ccc(F)cc3)cs2)cc1	-14%	-92%	0%	-60%	3.3µM*	2.8µM*	?	7%
O=c1ccc2ccc(Oc3ccc(Cl)cc3[N+](=O)[O-])cc2o1	/	0%	18%	/	0%	-2%[46.1 µM]	/	-8%
COc1cc(NC(=O)Cc2ccccc2)c(C(=O)O)cc1OC	/	-1%	0%	-2%	/	-3%[46.1 µM]	/	10%
Cc1ccc(NS(=O)(=O)N2CCCCC2)cc1	/	/	40%[activator]	/	11%[46.1 µM]	-12%[46.1 µM]	/	-17%
COc1ccc(CN(C)Cc2nc(Cc3ccccc3Cl)no2)cc1OC	/	-2%	-21%	-9%	?	?	/	-1%
CC(C)NC(=O)/C(=C/c1ccco1)c1ccccc1	-0.7%	-12%	0%	1%	-4%	-5%	5%	-18%
CNC(=O)Nc1cccc2cccnc12	/	0%	-7%	-2%	20%	-10%&-10%[46.1 µM]	/	-3%
CCn1c(C)nc2cc(C(=O)NNS(=O)(=O)c3ccc(C)c(C)c3)ccc21	1.4%	-16%	14%	3%	-7%	12%	-4%	-8%
C1=CC2CCC1ON2c1ccccc1 (configuration not stated)	0.1%	4%	-11%	14%	7%	-5%	0%	8%
O=C(NCCCN1CCOCC1)c1ccc2c(=O)n(-c3ccc(F)c(Cl)c3)c(=S)[nH]c2c1	/	2%	-27%	-3%	-7%	?	/	-19%
SMILES	Cruzain Triton	SARS PLpro yeast	StopGo reporter	NS1 inh	Lassa entry inh	MARV entry inh	Cruzain inh noDet	RE007 growth inh
N=c1c2c(ncn1CCN1CCOCC1)Oc1ccc3ccccc3c1C2c1ccccc1 (configuration not stated)	-6.2%	-14%	-1%	13%	-1%	?	-7%	-12%[3.69 µM]
O=C(CN(c1ccccc1)S(=O)(=O)c1ccccc1)N1CCN(Cc2ccc3c(c2)OCO3)CC1	0.2%	3%	?	-22%	?	-6%&-6%	3%	9%
CC(C)Cc1nnc(N)s1	/	/	-13%	/	5%[46.1 µM]	14%	/	-1%
COC(=O)Nc1nn(-c2ccc(C)cc2)c(=O)c(C#N)c1C	/	-4%	-7%	/	4%[46.1 µM]	?	/	1%
CC1(C)CC(=O)C(C(c2ccco2)C2C(=O)CC(C)(C)CC2=O)C(=O)C1	0.7%	7%	4%	-31%	19%	2%	9%	22%
CCn1c(SCc2cc(=O)[nH]c3ccccc23)nnc1C1CC1	-3.8%	-22%	-1%	-4%	18%	25%	-4%	-18%
OCC1(CO)COC(/C=C/c2ccccc2)=N1	/	3%	-8%	6%	/	/	/	6%
COC(=O)c1ccc(NC(=O)CSc2nnc(CNc3ccc(OC)cc3)n2C)cc1	-5.3%	-10%	0%	-2%	17%	11%	4%	6%
COCCNc1oc(-c2ccc(OC)cc2)nc1C#N	-11%	/	42%[activator]	/	?	4%[46.1 µM]	-2%	/
O=C(NCC1COc2ccccc2O1)C1CCCN(S(=O)(=O)c2cnc[nH]2)C1 (configuration not stated)	-2.8%	-7%	-18%	8%	/	/	1%	11%
CC(=O)Nc1nc2c(s1)C(=O)NCCC2	/	0%	-8%	1%	?	?	/	6%
CCOC(=O)C1C(=O)NCC2CCCC21 (configuration not stated)	0.2%	2%	9%	0%	5%	21%	-16%	3%
COc1ccc(S(=O)(=O)N2CCC(C)CC2)cc1OC	/	-3%	18%	16%	/	/	/	-2%
Oc1ccc2nc(Cc3ccccc3)[nH]c2c1	0.4%	0%	13%	-10%	6%	7%[46.1 µM]	-4%	-17%
CSc1ccc(Cl)c(C(=O)NCCCn2ccnc2)c1	/	1%	-3%	2%	/	/	/	-13%
NC(=S)c1cc2cc(Br)ccc2oc1=O	/	0%	0%	/	7%[46.1 µM]	?	/	-13%
COc1ccc(OCC2c3cc(OC)c(OC)cc3CCN2C(=O)COc2ccc(Cl)cc2Cl)cc1 (configuration not stated)	1.1%	/	-23%	/	?	/	-30%	/
O=C(C1=C(O)C(=O)N(CCN2CCOCC2)C1c1cccc(Br)c1)c1cccs1 (configuration not stated)	/	2%	50%[activator]	9%	?	-6%[46.1 µM]	/	-7%
CCC1(CC)C(=O)N(C)C(=O)NC1=Nc1ccc(OC)cc1	4.9%	1.8µM*	-12%	7%	15%	8%	-2%	-1%
Cc1c(NC(=O)c2ccccc2F)cccc1-c1nc2cccnc2s1	-7.1%	/	-2%	/	-12%[46.1 µM]	-15%[46.1 µM]	-11%	/
CC(C)OCCCNC(=O)C1CCC(CNS(=O)(=O)c2ccccc2)CC1 (configuration not stated)	-1.7%	8%	-3%	-16%	-1%	2%	9%	-18%
O=C(c1cn(Cc2ccccc2)c2ccccc12)N1CCCCC1	/	-3%	-1%	-7%	-3%[46.1 µM]	-1%[46.1 µM]	/	34%
Cn1c(CCN2CCCCC2)nc2cc(NC(=O)COc3ccc(Cl)cc3)ccc21	/	2%	-15%	0%	/	/	/	6%
Cc1ccc(/C=N/n2cnc3sc(-c4ccccc4)cc3c2=O)o1	-6.1%	-12%	-8%	-5%	-1%	-4%	10%	-20%
CCOc1ccc(OCc2ccc(C(=O)Nc3ccc(Cl)cn3)o2)cc1	-7.6%	-3%	-6%	/	-1%	5%	-6%	-13%
SMILES	Cruzain Triton	SARS PLpro yeast	StopGo reporter	NS1 inh	Lassa entry inh	MARV entry inh	Cruzain inh noDet	RE007 growth inh
O=C(O)c1cccc(S(=O)(=O)NCc2cccs2)c1	4.6%	-9%	-1%	-10%	28%	17%	-4%	12%
Nn1c(SCC(=O)Nc2cc(S(=O)(=O)N3CCOCC3)ccc2Cl)nnc1-c1cccnc1	/	-4%	3%	/	-1%	-2%	/	-18%
Cc1ccc(-n2c(-c3ccc(Br)cc3)nc3c(cnn3-c3ccccc3)c2=O)cc1	-3.8%	/	-16%	/	-3%[46.1 µM]	/	-26%	/
CCC1Oc2ccc(C)cc2N(CC(=O)NCCN2CCOCC2)C1=O (configuration not stated)	/	0%	-2%	0%	-1%[46.1 µM]	-15%[46.1 µM]	/	-8%
Cc1ccc(-c2cc3nc(-c4ccccc4)cc(C(F)(F)F)n3n2)cc1	-2.2%	/	20%	/	-10%[46.1 µM]	6%[46.1 µM]	-2%	/
CC(C)c1csc(CN2CCCC(CNC(=O)c3cccc4ccccc34)C2)n1 (configuration not stated)	/	-1%	-25%	-3%	?	-2%[46.1 µM]	/	-14%
CCOc1ccccc1CNC(=O)C1CCCN(c2ncnc3onc(-c4ccc(F)cc4)c23)C1 (configuration not stated)	-0.6%	/	-18%	/	-1%[46.1 µM]	/	-12%	/
COc1ccccc1OCc1nnc(SCC(=O)N2CCCC2)o1	/	0%	-9%	5%	6%	0%[46.1 µM]	/	0%
S=C(NCCCn1ccnc1)NC1CCCCC1	-0.9%	8%	8%	2%	6%	-2%	-8%	-9%
Cc1ccc(NC(=O)Nc2nnc(-c3ccccc3)o2)cc1	/	1%	55%[activator]	-11%	12%	29%[46.1 µM]	/	-15%
CCOc1ccc(OCCn2c(SCC(=O)O)nc3ccccc32)cc1	/	-3%	?	11%	/	/	/	33%
Cc1nc2nc(C)c(CCC(=O)N3CCN(c4ccccc4)CC3)c(C)n2n1	1.7%	9%	-3%	2%	14%	-3%	0%	-1%
CC(=O)c1ccccc1OCCOc1ncnc2sccc12	/	0%	16%	/	?	26%[46.1 µM]	/	2%
Cc1ccc2nc(CNC(=O)c3ccccc3)[nH]c2c1	-13%	/	70%[activator]	/	9%[46.1 µM]	?	7%	/
Cc1ccc(Cn2ccc(NC(=O)c3c(-c4ccccc4Cl)noc3C)n2)cc1	-3.3%	14%	-17%	-7%	?	-5%	-2%	1%
CCOC(=O)c1c(NC(=O)c2cc(=O)c3c(C)cc(C)cc3o2)sc2c1CCC2	-1.5%	/	-4%	/	2%[46.1 µM]	?	-10%	/
COCc1cc(C)nc(SCC(=O)Nc2ccccc2N2CCOCC2)c1C#N	/	-3%	-11%	2%	?	-19%[46.1 µM]	/	-3%
Cc1ccccc1CSCC(=O)NC(=O)NC(C)(C)C	0.8%	-3%	/	-62%	-24%	3%	-16%	-8%

From PubChem

Rows were taken by chance; overall some 4.5% were active at least once.
